# Env fusion inh – inhibitors of HIV-1 Env-driven cell-cell fusion, primary screen, HeLa-JRFL effector, CEM21 target cells, luciferase. AID 651610, 2012. 360,000 compounds, 1.1% hits. inhibition, % at 12.3 µM;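 active = mean replicate inhibition score of at least 50 and every replicate individually at or above 50; inconclusive = only one of the two criteria met; inactive = mean below 50 and not all replicates reaching 50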;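 note: 0% = plate neutral controls and 100% = maraviroc near 300 nM; one replicate is shown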
# MT1-MMP act inh – blockers of MT1-MMP proenzyme processing, primary screen, HT1080 RFP-PRO-GFP cells, GFP/RFP fluorescence; Matrix metalloproteinase-14 (Homo sapiens), P50281; GFP/RFP ratio fluorescence, overnight; percent of plate control window, DMSO zero; GFP/RFP ratio change, % at 20 µM; 360,000 compounds, 0.061% hits; AID 651647, 2012;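 active = GFP/RFP ratio change of at least 30% with cell ATP level not reduced by more than half and red fluorescence within 50% of control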; note: strong numbers were not always called active
#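 Compound: 20 µM single dose, 1% DMSO / System: HT1080 RFP-PRO-GFP cells / Controls: DMSO and RFP-L50D-GFP cell wells / Read-out basis: GFP/RFP fluorescence ratio / Schedule: overnight compound exposure at 37 °C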
# MT1-MMP act inh RFP – second read-out of MT1-MMP act inh, no call of its own (marks repeat the call); RFP signal change, %; measured here: RFP expression control read;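 0 = vehicle wells; hits needed this value within 50% of zero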
# * marks the source's active call; other numbers are inactive results; i = inactive; ? = inconclusive. Only part of the results is shown. The share of hits here may be higher or lower than overall.
Env fusion inh	MT1-MMP act inh	MT1-MMP act inh RFP	Molecule
-5	0	3	CCCCNC(=O)C(NC(=O)c1cccs1)C(=O)c1ccccc1 (stereo not drawn)
9	-3	-4	O=C1CCC(OCc2ccccc2)CCN1CC[C@@H](Sc1ccccc1)c1ccccc1 (stereo partly drawn)
-3	2	-4	CC(C)[C@@H]1CC2=C(C(=O)OC(C)(C)O2)[C@H](CCc2ccccc2)O1
-12	-3	1	Cc1cc2ccccc2nc1-c1ccccc1F
-6	2	5	Cc1cccc(C)c1NC(=O)C1(C)CN(S(C)(=O)=O)CC(=O)N1Cc1cccs1 (stereo not drawn)
8	-1	3	CCC(c1nnnn1-c1ccc2c(c1)OCCO2)N1CCN(C)CC1 (stereo not drawn)
-224	-5	-8	CCOc1ccc(CCN2C(=S)N([C@@H](CC(C)C)CN3CCCC3CN3C(=S)NC[C@@H]3Cc3ccccc3)C[C@@H]2CC(C)C)cc1 (stereo partly drawn)
-11	2	5	CC(=O)O[C@@H]1C[C@H](c2ccccc2)OC(=O)CCCCC1=O
8	0	8	COCCNC(=O)C1CCCN(Cc2cccc(C#N)c2)CC1 (stereo not drawn)
24	-6	-2	COc1ccc(OC)c(/C=C/c2ccnc3ccccc23)c1
4	1	-4	C=CCNC(=O)c1cc2cc(Cl)ccc2nc1N
22	0	2	CCN(CC)CCN(C)C(c1ccnc2ccccc12)c1nnnn1-c1ccc2c(c1)OCCO2 (stereo not drawn)
-3	-3	2	O=C(/C=C/c1ccccc1)CC(=O)c1ccccc1
-13	4	-2	Cc1ccc(S(=O)(=O)N2C3CCCCC3O[C@H]2CC(=O)c2ccc(F)cc2)cc1 (stereo partly drawn)
-1	1	4	CCCC(=O)N1CCC1(C)C(=O)Nc1ccc2c(c1)CCN2C(C)=O (stereo not drawn)
-77	4	-4	CCN(CC)C(=O)C1CCCN(C(=O)c2ccc3nc(-c4cccc(OC)c4)oc3c2)C1 (stereo not drawn)
4	1	3	Cc1ccc(S(=O)(=O)NCN2C(=O)c3ccccc3C2=O)cc1
-2	-2	-4	CCc1nc2c(OCc3ccc(C(=O)OC)cc3)cccn2c1N(C)C(=O)CC(C)C
-20	2	0	Cc1ccc(CN2C(=O)CCC2(C)c2nnnn2-c2c(C)cccc2C)cc1 (stereo not drawn)
-12	2	8	CCCCNc1c(-c2ccc(F)cc2)nc2nc(C)cc(C)n12
-15	2	4	C[C@H](NC(=O)[C@@H]1CCCN1C(=O)OC(C)(C)C)c1ccccc1
-6	0	1	O=C(CSc1n[nH]c(=O)n1C1CC1)Nc1ccc(F)c([N+](=O)[O-])c1
-19	-2	3	CC(C)C[C@H]1CN(CCCC[C@@H]2CNC(=O)C(=O)N2CCc2ccccc2)C(=O)C(=O)N1CCc1ccc(O)cc1
11	3	4	O=C(NN=Cc1ccc2c(c1)OCO2)c1ccc([N+](=O)[O-])cc1
?	-4	-5	CCn1c2ccccc2c2nnc(SCN3C(=O)c4ccccc4C3=O)nc21
-6	-5	0	Cc1ccn2c(CC(C)(C)C)c(-c3ccc(F)cc3)nc2c1
28	5	4	COc1cc(C#N)c(NC(=S)N2CCN(C(=O)c3ccco3)CC2)cc1OC
-134	8	6	COc1cc2c(cc1OC)/C(=C/C(=O)OCc1ccccc1)OC2
23	13	-30	COc1ccc(-c2ccc(N3C(c4cc(OC)cc(OC)c4)=Cc4ccc(OC)cc4C3CC(C)=O)cc2)cc1 (stereo not drawn)
9	-1	1	CSc1ccccc1NC(=O)COC(=O)CCCOc1ccc(C)cc1
8	0	4	C/C=C/c1cccc(-c2nc(C(=O)N3CCCCC3)cc3c2[C@H](CCO)N(C(=O)NC(C)C)C3)c1
-2	0	7	CSc1nc(=O)n(CCC#N)nc1SC
1	0	-3	CNC(=S)NN=C(C)c1ccc(OC)cc1O
35	1	-12	Brc1ccc([C@H]2C=C[C@H]3CCCN4CC[C@H]2[C@@H]3[C@]42CO2)cc1
-2	3	1	COCCCNC(=O)C[C@@H]1C[C@@]2(C(=O)OC)CC(C)(C)CC=C2N(CCc2ccc(OC)c(OC)c2)C1=O
-35	0	1	COc1cc(C(=O)C(=O)c2ccc(OC)c(OC)c2)ccc1O
11	-3	0	CC(C)C(N)c1csc(Nc2ccccn2)n1 (stereo not drawn)
-4	3	7	COc1cccc(CNCc2cccc(OC)c2O)c1O
-8	-2	0	COC(=O)[C@]12CCCCC=C1N(Cc1ccco1)C(=O)[C@H](CC(=O)N1CCC(c3ccccc3)CC1)C2
14	-1	-2	COC(=O)c1ccc(N2C(c3cc(OC)cc(OC)c3)=Cc3ccc(-c4cccnc4)cc3C2CC(=O)C2CC2)cc1 (stereo not drawn)
-199	-13	-13	CC(=NNc1nc2ccccc2o1)c1ncccn1
0	-2	1	CCSCCCn1[nH]c2ccccc2c1=O
-26	-25	-2	O=C1c2cc([N+](=O)[O-])ccc2-c2cc(Br)c(N=C(NO)C(F)(F)F)cc21
-1	-3	1	CC(C)NC(=O)c1cccc(NC(=O)CC2SC(N3CCCCC3)=NC2=O)c1 (stereo not drawn)
i	-9	-31	COc1ccc2c(c1)/C(=C\c1cccc(/C=C3/C(=O)Nc4ccc(OC)cc43)n1)C(=O)N2
-27	14	4	O=C1CCSC2=C1SCc1sccc12
9	2	5	CC(C)NC(=O)C1(C)CSCC(=O)N1C1CC1 (stereo not drawn)
-2	6	9	O=C(Nc1ncccc1O)c1ccc(S(=O)(=O)NCc2ccco2)cc1
-23	-50	-30	CC(C)OC(=O)c1ccc(NCc2cc(O)ccc2O)cc1Cl
-35	1	0	c1ccc(-c2cc(-c3cc(-c4ccccc4)on3)no2)cc1
-21	4	-1	CC(=O)Nc1ccc(OCc2ccccc2)cc1[N+](=O)[O-]
-36	1	2	COc1cc2ccc(-c3ccc4ccccc4n3)cc2cc1OC
-18	-13	-19	CCOC(=O)[C@]12CCC=C1N(Cc1ccc(Cl)cc1Cl)C(=O)[C@H](CC(=O)NCC13CC4CC(CC(C4)C1)C3)C2
-24	0	4	Cc1cccc(C)c1NC(=O)C(C)n1c(-c2ccc(=O)[nH]c2)nc2ccccc21 (stereo not drawn)
-8	-4	-6	COc1ccc(-c2cc3nc(-c4ccccc4)cc(N4CCN(C(=O)c5ccccc5)CC4)n3n2)cc1
11	-3	-2	CC(C)(C)C(=O)c1c(N)[nH]c(C(=O)c2ccccc2)c1-c1ccc(Cl)cc1Cl
6	-14	6	COCCCn1c(=O)/c(=C/c2ccccc2OC(F)F)s/c1=C(\C#N)C(=O)NCCOC
6	2	6	CC1(C(=O)NS(=O)(=O)c2ccc(C#N)cc2)CCN1C(=O)CC1CCCCC1 (stereo not drawn)
-1	2	-4	O=C(NC1CCCCCC1)c1ccc([N+](=O)[O-])s1
9	0	0	CC1(C(=O)Nc2ccc3c(c2)OCCO3)CSCC(=O)N1CCCN1CCOCC1 (stereo not drawn)

# Other entries follow.
Env fusion inh	MT1-MMP act inh	MT1-MMP act inh RFP	Molecule
?	6	3	COc1ccc(CN2C(=O)CSCC2(C)C(=O)NCc2ccccc2)cc1OC (stereo not drawn)
0	-53	-37	Cc1cc(NCCCCCCCNc2cc(C)nc3cc([N+](=O)[O-])ccc23)c2ccc([N+](=O)[O-])cc2n1
4	11	-1	CC(C)c1cc(Cn2c3ccccc3c(=O)n2C(C)Cn2cc(C3=CCCCC3)nn2)on1 (stereo not drawn)
16	-18	-22	COC(=O)[C@@]12C[C@@H](CC(=O)NCCc3ccccc3OC)C(=O)N(Cc3cccc4ccccc34)C1=CCC(C)(C)C2
-168	-6	-8	O=C(NCC(F)(F)F)c1cc2c(c(-c3cccc(-c4ccccc4F)c3)n1)[C@@H](CCO)N(C(=O)CC1CC1)C2
-22	0	3	COc1ccc(NC(=O)C(C2CC2)n2c(=O)c(-c3ccco3)nc3ccccc32)cc1 (stereo not drawn)
-1	5	1	COc1ccc(S(=O)(=O)N2CCC[C@H]2C(=O)N2CCC[C@H]2C(=O)NCc2ccc(F)cc2F)cc1C
-29	4	14	CCOC(=O)CC1(C)c2nc(NC(C)=O)sc2Cc2sc(NC(C)=O)nc21
-8	1	1	CCOC(=O)N1CCC2(CC1)NC(=O)c1ccccc1N2
17	-3	-7	CCCc1c(-c2ccc(Cl)cc2)ncn1Cc1ccccc1OC
9	-2	-5	COC[C@@H]1CCCN1c1ccc2c(c1)O[C@H](COCc1ccccc1)CN([C@H](C)c1ccccc1)S2(=O)=O
-66	1	1	CC(C)C[C@H]1CNC(=O)C(=O)N1C[C@H](Cc1ccc(O)cc1)NC(=O)Cc1ccccc1
-36	-9	-5	COc1ccc(NC(=O)C(c2ccccc2)n2c(=O)c(-c3cc4ccccc4[nH]3)nc3ccccc32)cc1 (stereo not drawn)
-34	1	3	O=c1[nH]cc(NCc2ccccc2)c(=O)[nH]1
-21	1	0	NS(=O)(=O)c1ccc(NC(=O)CN2CCN(S(=O)(=O)c3cccs3)CC2)cc1
-1	1	0	CC(C)CNc1ncnc2c1ncn2[C@H]1CN(Cc2ccc3c(c2)OCO3)C[C@@H](CO)O1
84*	-2	-19	N#Cc1c(N)n(C2OC(CO)C(O)C2O)c2ncnc(N)c12 (stereo not drawn)
-7	15	-2	CN(C)c1ncnc2[nH]ncc12
-2	21	23	O=C1CSC(=S)N1N=Cc1ccc(Cl)s1
-9	-13	-14	COC(=O)[C@]12CCCCC=C1N(Cc1cccc3ccccc13)C(=O)[C@H](CC(=O)NCc1ccccc1)C2
7	11	-25	Cn1c(=O)c2[nH]c(CCCCCCCCc3nc4ccccc4[nH]3)nc2n(C)c1=O
9	-1	1	Cc1ccccc1CN1C(=O)c2ccccc2C1c1nnnn1Cc1ccccc1 (stereo not drawn)
?	-17	-20	Cc1ccc(S(=O)(=O)N(CCc2ccccc2)c2ccc3c(c2)C2CC3CCN2C(=O)OCc2ccccc2)cc1 (stereo not drawn)
12	-4	0	O=C1C=CC(c2c[nH]c3ccccc23)CC1 (stereo not drawn)
-9	-25	-31	COC(=O)[C@@]12C[C@@H](CC(=O)N3CCCC3)C(=O)N(Cc3cccc4ccccc34)C1=CCC(C)(C)C2
4	0	5	CCCN(C)C1CN(Cc2cn(CCCC(=O)OC)nn2)S(=O)(=O)C1 (stereo not drawn)
0	3	6	CCOC(=O)[C@]12CCC=C1N(CCC1=CCCCC1)C(=O)[C@H](CC(=O)N1CCOCC1)C2
16	-14	-16	CCCCCCCCCCCCCCCC(O)C[N+](C)(C)CCO (stereo not drawn)
-4	0	5	CC(=O)NCC1(c2ccccc2)CCN(CC2COc3ccccc3O2)CC1 (stereo not drawn)
1	-1	1	O=C(CNS(=O)(=O)c1ccccc1F)NNC(=O)c1ccc(Br)cc1

# Sorted by heavy-atom count (smallest number first): some entries from above.
Env fusion inh	MT1-MMP act inh	MT1-MMP act inh RFP	Molecule
-7	15	-2	CN(C)c1ncnc2[nH]ncc12
-29	4	14	CCOC(=O)CC1(C)c2nc(NC(C)=O)sc2Cc2sc(NC(C)=O)nc21
0	3	6	CCOC(=O)[C@]12CCC=C1N(CCC1=CCCCC1)C(=O)[C@H](CC(=O)N1CCOCC1)C2
-1	5	1	COc1ccc(S(=O)(=O)N2CCC[C@H]2C(=O)N2CCC[C@H]2C(=O)NCc2ccc(F)cc2F)cc1C
-168	-6	-8	O=C(NCC(F)(F)F)c1cc2c(c(-c3cccc(-c4ccccc4F)c3)n1)[C@@H](CCO)N(C(=O)CC1CC1)C2
?	-17	-20	Cc1ccc(S(=O)(=O)N(CCc2ccccc2)c2ccc3c(c2)C2CC3CCN2C(=O)OCc2ccccc2)cc1 (stereo not drawn)
16	-18	-22	COC(=O)[C@@]12C[C@@H](CC(=O)NCCc3ccccc3OC)C(=O)N(Cc3cccc4ccccc34)C1=CCC(C)(C)C2

# Following part
Env fusion inh	MT1-MMP act inh	MT1-MMP act inh RFP	Molecule
-31	-2	-1	O=C(NC(=S)NCc1ccc(Cl)cc1Cl)c1ccco1
-5	2	1	COC(=O)C1OC1c1cc([N+](=O)[O-])ccc1OC (stereo not drawn)
-2	-5	-1	COC(=O)[C@@]12C[C@@H](CC(=O)NCCCN3CCCC3=O)C(=O)N(Cc3ccc4c(c3)OCO4)C1=CCC(C)(C)C2
?	6	5	Cc1cc(C)c2cc(C#N)c(NCCNC(=O)c3cccnc3)nc2c1
-38	1	-9	COc1ccccc1CNc1nc2cc(-c3ccc(OC)c(OC)c3)sc2c(=O)n1C
-19	-4	-3	CCC(NC(=O)CNC(=O)c1ccc2c(c1)OCO2)c1ccc(Br)cc1 (stereo not drawn)
-4	0	-11	CCCCSc1nc2c([nH]1)c(=O)n(C)c(=S)n2C
23	2	4	COc1ccc(CCN2C(=O)COc3ccccc3C2C(=O)NCc2ccccc2)cc1OC (stereo not drawn)
-23	-2	-1	C=CCn1c(C(C)n2c(-c3cnccn3)nc3ccccc32)nc2ccccc21 (stereo not drawn)
-461	9	-4	O=C(Cc1ccccc1[N+](=O)[O-])NCC1(c2cccc3c2OCO3)OCCO1
75*	-12	-23	CC1(C)N=C(N)N=C(N)N1CCCCc1ccccc1
15	-3	-4	CCCCNC(=O)C[C@@H]1C[C@@]2(C(=O)OC)CCCCC=C2N(CCC2=CCCCC2)C1=O

# High-throughput results deposited in PubChem by several laboratories.
